UCH37 DUB inh – human UCH37 deubiquitinating enzyme inhibition. 0.33% of 330,000 active. purified proteasome/UCH37, Ub-AMC cleavage fluorescence. AID 588478. inhibition, % (test concentration not listed);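 active = mean of two replicates above 20%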;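 also: 0% = compound-free wells with enzyme and 100% = wells lacking proteasome; stock transfer was 100 nL into about 20 µL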
Target sequence (Q9Y5K5 whole entry, looked up): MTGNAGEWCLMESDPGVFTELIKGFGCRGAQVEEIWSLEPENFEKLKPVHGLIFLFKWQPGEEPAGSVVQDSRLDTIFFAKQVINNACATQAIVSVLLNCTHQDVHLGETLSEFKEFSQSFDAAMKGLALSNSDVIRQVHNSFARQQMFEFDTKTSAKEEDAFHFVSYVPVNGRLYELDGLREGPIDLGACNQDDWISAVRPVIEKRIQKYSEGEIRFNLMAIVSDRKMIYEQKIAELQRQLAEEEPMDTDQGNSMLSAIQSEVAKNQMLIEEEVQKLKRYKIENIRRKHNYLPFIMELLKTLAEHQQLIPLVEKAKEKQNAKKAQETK
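Material: Human UCH37 enzyme supplied as purified proteasome complex | Schedule: 30 min preincubation with enzyme, 25 min cleavage at room temperature | Detection: AMC fluorescence 355/460 nm | Measure: % inhibition of Ub-AMC cleavage fluorescence | Controls: Wells without proteasome as full block, compound-free enzyme plus substrate as uninhibited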
E coli growth – E. coli growth inhibition; OD600 absorbance (no concentration beside the values); Escherichia coli growth, OD600, 23 h; hits give low values; 0.21% of 330,000 active;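 active = OD600 absorbance below the run mean of sample wells minus 3.6 SD, in any replicate, cut at about 0.56 in these data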;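 also: stock transfer was 300 nL into about 60 µL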
* hit, by the source's call; i = inactive.

entry	SMILES	E coli growth	UCH37 DUB inh
1	COc1ccc(C=NNC(=O)c2ccc(NC(=O)c3cccc([N+](=O)[O-])c3)cc2)c(OC)c1	0.69	3.9
2	CC(=NNC(=O)Cn1nc(C)c(Br)c1C)c1cccs1	0.7	1.9
3	CCn1ncc(C=NNC(=O)c2ccc3c(c2)c(C)c(C)n3Cc2ccccc2)c1C	0.68	-13
4	CCC1SC(=NS(=O)(=O)c2cccs2)N(C2CCCCC2)C1=O (stereo not given)	0.76	-0.9
5	CN(C)S(=O)(=O)c1cccc(NC(=S)NN=CC(=O)c2ccccc2)c1	0.69	-0.5
6	C=CCOc1ccc(Br)cc1C=NO	0.7	3.1
7	CC1(CC(=O)NN=Cc2ccc(OCc3ccc(Cl)cc3Cl)cc2)OCCCO1	0.65	-0.4
8	O=[N+]([O-])c1ccc(Cl)c(C=NN2CCN(Cc3ccccc3Cl)CC2)c1	0.76	2.9
9	Cc1ccsc1C=NNC(=O)c1ccncc1	0.72	4.4
10	O=C(NN=Cc1ccc(N2CCOCC2)cc1)c1ccc(O)cc1	0.69	-19
11	COc1ccccc1N1CCN(N=Cc2cc(OC)c(OC)c(OC)c2)CC1	0.64	3.1
12	CCCOc1ccc(C=NNC(=O)CN2CCCCC2)cc1	0.61	0.1
13	Cc1ccc(C(=O)NN=Cc2c(C)nn(-c3ccccc3)c2Cl)cn1	0.7	2.8
14	Clc1ssc(=Nc2ccccn2)c1Cl	0.81	6.7
15	C=C(C)C1CC=C(C)C(=NNc2ccccc2[N+](=O)[O-])C1 (stereo not given)	0.72	5.1
16	Cc1ccccc1-n1c(C)cc(C=NNc2ccc([N+](=O)[O-])cn2)c1C	0.77	-3.0
17	O=C(CNS(=O)(=O)c1ccccc1)NN=Cc1ccncc1	0.67	3.3
18	CCC(=Nn1nnnc1Nc1ccccc1)c1ccccc1	0.73	2.8
19	O=C(Cc1ccccc1)NN=Cc1cccn1-c1ccc([N+](=O)[O-])cc1	0.74	5.3
20	CCOC(=O)Cc1csc(NN=Cc2cccc([N+](=O)[O-])c2)n1	0.71	4.0

The final three entries of the section above lead into the next:
entry	SMILES	E coli growth	UCH37 DUB inh
18	CCC(=Nn1nnnc1Nc1ccccc1)c1ccccc1	0.73	2.8
19	O=C(Cc1ccccc1)NN=Cc1cccn1-c1ccc([N+](=O)[O-])cc1	0.74	5.3
20	CCOC(=O)Cc1csc(NN=Cc2cccc([N+](=O)[O-])c2)n1	0.71	4.0
21	NN=c1sc2ccccc2n1-c1ccccc1	0.72	3.7
22	CCOc1ccccc1C=c1sc2ncnn2c1=O	0.7	3.4
23	Cc1cccc(NN=C2COC(C)(C)CC2=O)c1	0.65	8.3
24	O=C(NN=Cc1ccc2c(c1)OCO2)c1cc(-c2ccc(F)cc2)nc2ccccc12	0.71	-31
25	O=C(C[n+]1ccc(C=NO)cc1)N1CCCCC1	0.69	7.0
26	COc1cc(C=NNC(=O)c2ccc(NC(=O)C3CCCCC3)cc2)ccc1O	0.7	0.1
27	Br/C(C=NN1CCN(c2ccccc2)CC1)=C\c1ccccc1	0.7	4.4
28	CC1CCCC(C)N1N=Cc1cccc(Br)c1 (stereo not given)	0.65	4.0
29	O=C(CSCc1cccc(Cl)c1)NN=Cc1ccc(OCC(=O)N2CCCCC2)cc1	0.67	4.0
30	O=C(NN=Cc1cccn1-c1ccc(O)cc1)c1cccc2ccccc12	0.65	-11
31	CCCOc1ccc(C(=O)ON=C(CC)c2ccc(C)cc2)cc1	0.7	6.7
32	Cc1nc2ccccc2c(=O)n1N=Cc1ccco1	0.69	6.1
33	COC(=O)c1ccc(C=NNC(=S)NC(C)C)cc1	0.71	-0.8
34	C[N+](C)=C1SCC(C)(C=NO)S1 (stereo not given)	0.7	0.5
35	COc1ccccc1C=NNc1nc(C)cc(C)n1	0.64	7.4
36	Cc1n[nH]c(C)c1CCC(=O)NN=C/C=C/c1ccccc1	0.72	3.5
37	COc1ccc(Br)cc1C=NNC(=O)c1cccc(S(=O)(=O)N2CCOCC2)c1	0.69	2.8
38	CCc1n[nH]c(=S)n1N=Cc1c(O)ccc2ccccc12	0.68	0.9
39	C=CCn1c(CNc2ccc(C)cc2)nnc1SCC(=O)NN=Cc1ccc(O)cc1	0.72	5.4
40	O=[N+]([O-])c1ccc(C=Nn2c(CO)nc3ccccc32)s1	0.71	3.1
41	COc1ccc(C=Nn2c(-c3ccccc3)n[nH]c2=S)cc1	0.64	4.4
42	COc1ccc(CN2C(=O)CSC2=NN=Cc2ccccc2)cc1	0.64	5.5
43	O=C(NN=Cc1ccccc1C(=O)O)c1cccc(S(=O)(=O)Nc2cc(Cl)ccc2Cl)c1	0.64	-0.3
44	O=C(CN1CCOCC1)NN=C/C=C/c1ccccc1	0.67	4.7
45	CC(=O)NC(Cc1c[nH]c2ccccc12)C(=O)NN=Cc1ccccc1 (stereo not given)	0.65	1.5
46	CSc1ccc(C=Nn2nnnc2N)cc1	0.69	-85
47	COc1ccc(C=NNC(=O)c2ccc(O)cc2O)cc1CSc1ccccn1	0.71	-48
48	Cc1ccc(S(=O)(=O)NN=CC(C)(C)CO)cc1	0.76	2.4
49	O=C1C2C3C=CC(C4CC34)C2C(=O)N1N=Cc1cccs1 (stereo not given)	0.69	3.6
50	CC(=NNc1ccccn1)c1ccc(C(C)C)cc1	0.63	2.5
51	Cc1cc([N+](=O)[O-])nn1CC(=O)NN=Cc1ccccc1Br	0.7	4.4
52	Cc1nn(-c2ccccc2)c(C)c1C=NNC(=O)c1cc(C2CC2)[nH]n1	0.71	0.2
53	CON=Cc1ccc(N2CCOCC2)c([N+](=O)[O-])c1	0.67	-0.5
54	CC(C)c1c(C(=O)NN=Cc2ccc(OCc3ccc(F)cc3)cc2)nnn1-c1nonc1N	0.68	-2.5
55	C/C(C=NNC(=O)c1ccncc1)=C\c1ccco1	0.65	23*
56	O=C(Cc1cccc2ccccc12)NN=C1CCCc2ccccc21	0.73	0.3
57	O=C(CNC(=O)c1ccccc1Br)NN=Cc1ccco1	0.69	-0.1
58	Oc1c(Br)cccc1C=Nc1ncn[nH]1	0.65	2.0
59	Fc1cccc(C=NN=Cc2cccc(F)c2)c1	0.71	-1.9
60	Clc1ccccc1C=NN1CCN(Cc2ccccc2)CC1	0.68	0.2
61	O=C(O)c1cccc(Cn2c(Cl)c(C=NNC(=O)c3ccccc3Cl)sc2=O)c1	0.71	-1.9
62	O=C(NN=C1CCCc2ccccc21)c1cccc(Br)c1	0.67	1.1
63	Cc1ccsc1C=NNC(=O)CO	0.7	2.5
64	O=C(CNC(=O)c1ccco1)NN=Cc1ccc(O)c([N+](=O)[O-])c1	0.71	3.7
65	O=c1c2cnn(-c3ccccc3)c2nnn1N=Cc1cccnc1	0.7	3.5
66	Cc1cc(C)c(C)c(OCC(=O)ON=C(N)c2ccccn2)c1	0.73	-3.3
67	O=C(NN=Cc1cccs1)c1ccc2c(c1)OCO2	0.64	8.7
68	CC(C=NO)Cc1ccc2c(c1)OCO2 (stereo not given)	0.69	-0.2
69	O=C(O)CC1SC(=NN=Cc2ccc(Br)cc2)N(c2ccccc2)C1=O (stereo not given)	0.7	5.8
70	O=C(Cc1ccc(Cl)cc1)NN=Cc1ccncc1	0.63	-0.3
71	COc1cccc(C=NNC(=O)c2ccoc2C)c1	0.65	0.8
72	COc1cc(C=NNC(N)=S)ccc1OCc1ccc(C)cc1	0.7	3.2
73	CC(CC(=O)NCc1ccc(Cl)cc1)=NNC(=O)Cc1ccccc1	0.7	4.7
74	COC(=O)Cc1cc(=O)[nH]c(N=C(N)Nc2ccc(C)cc2)n1	0.6	0.5
75	Cc1ccc(C)c(NC(=S)NN=C2CCc3ccccc32)c1	0.66	-2.0
76	O=[N+]([O-])c1ccccc1C=NNc1nc(N2CCCC2)nc(N2CCCC2)n1	0.69	5.2
77	CC(C)(C)NC(=O)CCN(N=Cc1ccc([N+](=O)[O-])o1)C1=NS(=O)(=O)c2ccccc21	0.69	5.0
78	Cc1cc(NN=Cc2c(O)ccc3ccccc23)nc(-c2ccccc2O)n1	0.71	1.2
79	Cc1ccc(S(=O)(=O)NN=C2CCCCC2C2CCCCC2)cc1[N+](=O)[O-] (stereo not given)	0.7	5.4
80	Cn1ccc(C(=O)NN=Cc2ccccc2[N+](=O)[O-])n1	0.7	4.1

Next part.
entry	SMILES	E coli growth	UCH37 DUB inh
81	CC(=NO)c1ccccc1C(=O)O	0.7	0.4
82	CN(C)C=Nc1nc2nccc(-c3ccc(Cl)cc3)n2n1	0.64	i
83	Cc1cccc(C)c1NC(=S)NN=C1CC2CC=CC12 (stereo not given)	0.66	1.3
84	CN1CCN(CCC(=O)NN=Cc2cc3c(cc2[N+](=O)[O-])OCO3)CC1	0.69	5.1
85	N#Cc1ccccc1C=NNc1nc(-c2ccccc2)c2cc(Cl)ccc2n1	0.78	-11
86	NC(=O)C(N=Nc1ccccc1)=NNc1ccccc1	0.71	-1.7
87	C#CCN1CC(C)C(=NO)CC1C (stereo not given)	0.77	1.5
88	CC(=NNC(=O)c1ccc([N+](=O)[O-])cc1)c1cccc([N+](=O)[O-])c1	0.71	3.1
89	CCNC(=O)CC(C)=NNC(=O)C1CCCCC1	0.74	2.0
90	S=c1[nH]nc(C2CCCCC2)n1N=Cc1cccc(Br)c1	0.72	5.9
91	O=C(NN=C1CCSc2ccc(F)cc21)c1cccnc1	0.66	-2.1
92	CC(=NNC(=O)c1ccco1)c1ccc(NC(=O)C(F)(F)F)cc1	0.74	3.5
93	CCCCN(C)C=Nc1c(C#N)cnn1-c1ccc(C)cc1	0.68	1.5
94	O=C(NN=CC=NNC(=O)c1ccco1)c1ccco1	0.67	11
95	CCN(CC)S(=O)(=O)c1ccc(NN=Cc2cccnc2)nc1	0.65	11
96	Nc1nnc(CC(=O)NN=Cc2ccc(-c3ccccc3)o2)s1	0.67	-1.7
97	CC(C)CCOc1ccc(C=NN2C(=O)CSC2=S)cc1	0.64	2.4
98	COC(C(=O)NN=C(C)c1ccc(C)cc1)c1ccccc1 (stereo not given)	0.66	1.3
99	Cc1cc(C)n(-c2nnc(C)n2N=Cc2cc(Br)ccc2OCc2ccccc2)n1	0.72	-0.4
100	COc1ccc(N(CC(=O)NN=Cc2cccs2)S(=O)(=O)c2ccc(OC)c(OC)c2)cc1	0.69	3.4

Some of these compounds in order of the UCH37 DUB inh value, descending.
| # | smiles | UCH37 DUB inh |
| --- | --- | --- |
| 87 | C#CCN1CC(C)C(=NO)CC1C (stereo not given) | 1.5 |
| 86 | NC(=O)C(N=Nc1ccccc1)=NNc1ccccc1 | -1.7 |
| 91 | O=C(NN=C1CCSc2ccc(F)cc21)c1cccnc1 | -2.1 |

Going on with the list.
entry	SMILES	E coli growth	UCH37 DUB inh
101	COCCn1c(C)cc(C=NNC(=O)c2cc3ccccc3cc2O)c1C	0.67	-0.4
102	C=CCON=C(C)c1ccc(Oc2cnccn2)cc1	0.72	3.8
103	Cc1ccc(C)c(NC(=O)CCC(=O)NN=Cc2cccnc2)c1	0.73	6.6
104	Cc1ccc2occ(C=NNC(=O)c3ccc(Cl)cc3)c(=O)c2c1	0.7	0.1
105	C=CCOc1c(C=NNC(N)=O)cccc1OC	0.65	1.3
106	COc1ccccc1/C=C\C=NNC(=O)c1ccco1	0.65	-9.9
107	COC(=O)NN=C(C)/C=C/c1ccco1	0.68	5.4
108	CN(C)c1ccc(C=c2sc3nc(-c4ccccc4)nn3c2=O)cc1	0.65	3.2
109	COc1ccc(S(=O)(=O)NN=C(C)c2ccncc2)c(OC)c1	0.67	1.8
110	O=C(NN=Cc1ccc(COc2ccc([N+](=O)[O-])cc2)o1)c1ccc(Cl)cc1	0.72	4.3
111	CCc1ccc(C=Nn2c(C3CCCCC3)n[nH]c2=S)cc1	0.71	2.8
112	O=C(NN=C1CC2CC=CC12)c1ccccc1Cl (stereo not given)	0.69	3.0
113	CCc1ccc[n+](-c2[nH]c(=O)sc2C=N/N=C(\[O-])c2ccncc2)c1	0.64	20
114	Cc1cccc(NN=C(C#N)S(=O)(=O)C(C)(C)C)c1	0.72	4.3
115	COC(=O)NN=Cc1cccc([N+](=O)[O-])c1	0.64	5.4
116	N#CCC(=O)NN=Cc1cn(Cc2ccc(Cl)c(Cl)c2)c2ccccc12	0.66	0.5
117	O=C(NN=Cc1ccc([N+](=O)[O-])o1)C1CCCC1	0.61	12
118	Cn1cccc1-c1cc(C(=O)NN=Cc2ccc(F)cc2)[nH]n1	0.6	3.1
119	Cn1c(N2CCOCC2)c(C=NOC(=O)c2ccc(F)cc2)c2ccccc21	0.65	-3.8
120	CC(=NNc1nncc2ccccc12)c1ccc(Cl)c([N+](=O)[O-])c1	0.68	4.7

Complete entries as entered above.
Record of Cc1ccc(S(=O)(=O)NN=CC(C)(C)CO)cc1 → E coli growth: 0.76; UCH37 DUB inh: 2.4
Record of COc1ccccc1N1CCN(N=Cc2cc(OC)c(OC)c(OC)c2)CC1 → E coli growth: 0.64; UCH37 DUB inh: 3.1

Next section:
entry	SMILES	E coli growth	UCH37 DUB inh
121	COC(=O)c1ccc(C=NN2CCN(Cc3ccccc3)CC2)cc1	0.73	0.2
122	N#CC(=NNc1cccc([N+](=O)[O-])c1)C(=O)c1ccc(Br)cc1	0.59	10
123	COc1ccccc1C=NNC(=O)C(=O)Nc1ccccc1OC(F)(F)C(F)F	0.67	2.3
124	CC(=NN=Cc1ccc(N(C)C)cc1)c1ccccc1	0.75	5.3
125	Cc1cc(C(=O)NN=Cc2cc(Br)cc([N+](=O)[O-])c2O)c2ccccc2n1	0.69	8.9
126	CC(C)(C)Sc1ccc(C=NO)cc1[N+](=O)[O-]	0.68	2.6

Entries listed so far shown as hits in UCH37 DUB inh:
No. | mol | UCH37 DUB inh
55 | C/C(C=NNC(=O)c1ccncc1)=C\c1ccco1 | 23*

Screens deposited in PubChem by ICCB-Longwood Screening Facility, Harvard Medical School.

The list is partial. The share of hits here may be higher or lower than overall.
